PABP polyA inh = PABP-poly(A) binding inhibition | inhibition, % at 35 µM | P11940 | PABP-poly(A) RNA binding, fluorescence polarization | AID 2014 | 290,000 tested, 1% active;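 active = 50% or more with normal probe brightness, or confirmed in later tests; inconclusive = above 50% with abnormal brightness, or retests that disagree; inactive = below 50% or failed in later tests; about a fifth of its hits are not listed in these tables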;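 also: calls also rest on retests at 20 µM and on dose response follow-up; controls were probe without protein and protein plus probe with vehicle; some compounds called inactive have numbers as strong as hits; many hits fall short of the cut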
eIF4H inh = inhibitors of RNA binding by human eIF4H; eIF4H fluorescence polarization binding assay; inhibition, % at 35 µM; Q15056; AID 2012; 290,000 tested, 0.94% active;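 active = 50% or more with normal probe brightness, or confirmed in later tests; inconclusive = above 50% with abnormal brightness, or retests that disagree; inactive = below 50% or failed in later tests; about a fifth of its hits are not listed in these tables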;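 also: calls also rest on retests at 20 µM and on dose response follow-up; 0% = protein and probe with vehicle and 100% = probe without protein; strong numbers were not always called active; many hits fall short of the cut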
Rce1 inhib = blocks yeast Ras-converting enzyme | yeast membranes, quenched prenylated peptide cleavage fluorescence | 290,000 tested, 0.27% active | calls only | Q03530;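 active = fall in fluorescence gain of 50% or more versus controls, with final raw signal at or below 3038400; inconclusive = same 50% fall but final raw signal above 3038400; inactive = fall in fluorescence gain under 50%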;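 also: plate controls were neutral control wells for no effect and wells lacking membranes for full effect; tested at 10 µM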
Target sequence (Q03530 whole entry, looked up): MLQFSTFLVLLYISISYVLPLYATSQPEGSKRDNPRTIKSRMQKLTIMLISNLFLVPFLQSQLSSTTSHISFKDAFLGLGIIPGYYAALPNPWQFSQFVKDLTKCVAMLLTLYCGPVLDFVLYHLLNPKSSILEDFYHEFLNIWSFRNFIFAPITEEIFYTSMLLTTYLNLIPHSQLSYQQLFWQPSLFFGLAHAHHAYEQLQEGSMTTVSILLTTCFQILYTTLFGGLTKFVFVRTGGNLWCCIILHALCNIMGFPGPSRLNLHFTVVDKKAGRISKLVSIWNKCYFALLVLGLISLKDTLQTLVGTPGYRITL
CSC inhib = blocks cancer stem cells; cancer stem cell-like cells viability, luminescence; inhibition, % at 7.5 µM; 300,000 tested, 1.1% active;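 active = mean at 75% or more and at least half the replicates too; inconclusive = mean and replicates disagree; tested in HMLE shEcad cells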;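 also: 0% = median of negative and 100% = median of positive control wells; the first replicate is given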
HIV Env fusion = blocks HIV Env-driven cell-cell fusion; HeLa-JRFL Env/CEM21 cell fusion, luciferase; inhibition, % at 12.3 µM; 360,000 tested, 1.1% active;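 active = mean replicate inhibition score of at least 50 and every replicate individually at or above 50; inconclusive = only one of the two criteria met; inactive = mean below 50 and not all replicates reaching 50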;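 also: 0% = plate neutral controls and 100% = maraviroc near 300 nM; one replicate is shown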
MT1-MMP act inh = blocks activation of human MT1-MMP | P50281 | HT1080 RFP-PRO-GFP cells, GFP/RFP ratio fluorescence, overnight; percent of plate control window, DMSO zero | GFP/RFP ratio change, % at 20 µM | 360,000 tested, 0.061% active;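 active = GFP/RFP ratio change of at least 30% with cell ATP level not reduced by more than half and red fluorescence within 50% of control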; also: strong numbers were not always called active
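Read-out: GFP/RFP fluorescence ratio; Test system: RFP-PRO-GFP reporter HT1080 cells; Compound dosing: single-point 20 µM compound, 1% DMSO; Times: overnight compound exposure at 37 °C.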
Yeast UUG start = alters start codon recognition fidelity in yeast; S. cerevisiae UUG-firefly luciferase reporter, luminescence/redox ratio; activity score, % at 18.7 µM; 350,000 tested, 0.13% active; AID 602363;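 active = replicate mean at a twofold rise or more, about +100% in these data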;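 also: firefly luciferase made from a UUG start codon reports start codon fidelity; reporter light over untreated wells divided by growth signal over untreated wells; some hits fall short of that in this replicate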
MT1-MMP act inh RFP = recorded beside MT1-MMP act inh, whose call it bears; RFP signal change, %; measured here: RFP expression control read;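 0 = vehicle wells; hits needed this value within 50% of zero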
The depositor's hits bear a star; i = inactive; ? = inconclusive; · = not tested or not shown; + = active, no number; & = joins results of further samples. This is a subset, so the mix of outcomes need not match the whole.

1. CCOC(=O)NNc1nncc2ccccc12
2. CCCCOc1ccc(CC(=O)NO)cc1
3. COc1c(O)cc2c(c1O)[C@@H]1OC(CO)C(O)C(O)[C@H]1OC2=O (stereo partly drawn)
4. COc1c(O)cc2c(c1O)[C@@H]1O[C@H](CO)[C@@H](O)[C@H](O)C1OC2=O (stereo partly drawn)
5. O=C(O)/C=C/c1ccc(O)cc1
6. CC(C)(CO)C(O)C(=O)NCCCO (stereo not drawn)
7. CC[C@]1(O)C[C@@H]2CN(CCc3c([nH]c4ccccc34)[C@@](C(=O)OC)(c3cc4c(cc3OC)N(C)[C@H]3[C@@](O)(C(=O)OC)[C@H](OC(C)=O)[C@]5(CC)C=CCN6CC[C@]43[C@@H]65)C2)C1
8. CC12CCC(=O)C=C1CCC1C2CCC2(C)C1CC[C@]2(O)C(=O)CO (stereo partly drawn)

Screen / compound no.,1,2,3,4,5,6,7,8
PABP polyA inh,·,-6,·,·,·,·,?,4
eIF4H inh,·,-12,·,·,·,·,?,-8
Rce1 inhib,·,i,·,i,+,i,i,i
CSC inhib,-9,3,·,-6,-4,-16,81*,-19
HIV Env fusion,-66,6,-37,·,·,-14,-95,·
MT1-MMP act inh,-1,0,1,-1,0,2,-3,2
MT1-MMP act inh RFP,0,3,0,0,0,0,2,3
Yeast UUG start,-6,-1,-14,-17,-9,-8,9,1

9. C[C@@H]1C[C@H]2[C@@H]3C[C@H](F)C4=CC(=O)C=C[C@]4(C)[C@@]3(F)[C@@H](O)C[C@]2(C)[C@@]1(O)C(=O)COC(=O)C(C)(C)C
10. CN(C)CCOc1ccccc1Cc1ccccc1
11. Nc1ncnc2nc[nH]c12
12. CCn1cc(C(=O)O)c(=O)c2cc(F)c(N3CCNCC3)nc21
13. Nc1c2c(nc3ccccc13)CCCC2O (stereo not drawn)
14. COC(=O)C1=CO[C@@H](OC2OC(CO)C(O)C(O)C2O)[C@@H]2[C@@H](C)[C@@H](O)C[C@H]12 (stereo partly drawn)
15. COc1cc([C@H]2Oc3cc([C@H]4Oc5cc(O)cc(O)c5C(=O)[C@@H]4O)ccc3O[C@@H]2CO)ccc1O
16. COc1ccccc1OCCNCC(O)COc1cccc2[nH]c3ccccc3c12 (stereo not drawn)

Screen / compound no.,9,10,11,12,13,14,15,16
PABP polyA inh,-6,-2,2,·,·,·,-3,-3
eIF4H inh,0,2,17,·,·,·,-7,1
Rce1 inhib,i,i,i,·,·,i,i,i
CSC inhib,-7,-14,-3&-3&1,·,·,-10,-3,24
HIV Env fusion,i,12,32&7,20,20,·,7,·
MT1-MMP act inh,-5,-2,8&7&1,0,3,2,-2,·
MT1-MMP act inh RFP,-8,2,7&7&4,-5,4,5,-7,·
Yeast UUG start,-30,-4,-30&-8&-4,-15,-8,-18,-17,·

17. C=C1c2cccc(O)c2C(O)=C2C(=O)[C@]3(O)C(O)=C(C(N)=O)C(=O)[C@@H](N(C)C)[C@@H]3[C@@H](O)[C@H]12
18. Cn1c(=O)c2c(ncn2CCO)n(C)c1=O
19. CC(=O)Nc1ccccc1
20. CCCOC(=O)c1ccc(O)cc1
21. COc1ccc2nc(NC(=O)Nc3ccccc3)sc2c1
22. O=c1cc(-c2ccc(O)cc2)oc2cc(O[C@@H]3O[C@H](CO)[C@@H](O)[C@H](O)[C@H]3O[C@@H]3OC[C@](O)(CO)[C@H]3O)cc(O)c12
23. CCCCC1C(=O)N(c2ccccc2)N(c2ccccc2)C1=O
24. COc1ccc2ccc(=O)oc2c1

Screen / compound no.,17,18,19,20,21,22,23,24
PABP polyA inh,110*,2,·,·,-2,7,-16,18
eIF4H inh,107*,17,·,·,4,-6,7,1
Rce1 inhib,i,i,·,i,i,i,i,i
CSC inhib,-15,3,·,-15,·,-7,-1,-3
HIV Env fusion,·,i,3,·,i,?,-24,·
MT1-MMP act inh,11,3,-2,0,4,5,-4,6
MT1-MMP act inh RFP,-6,6,6,2,-4,-1,-1,6
Yeast UUG start,-7,-12,-15,-13,-25,-6,32,-5

25. COc1cc2nc(N3CCN(C(=O)[C@H]4COc5ccccc5O4)CC3)nc(N)c2cc1OC
26. Cc1cccc(C)c1NC(=O)C1CCCCN1C (stereo not drawn)
27. NC(N)=NC(=O)Cc1c(Cl)cccc1Cl
28. COc1ccc(CN2CCN(C(c3ccc(F)cc3)c3ccc(F)cc3)CC2)c(OC)c1OC
29. O=C(Nc1ccc(C(=O)O)c(O)c1)c1ccccc1
30. COC(c1ccccc1)(c1ccccc1)C(Oc1nc(C)cc(C)n1)C(=O)O (stereo not drawn)
31. Cc1[nH]c2ccccc2c1/C=N/NC(N)=S

Screen / compound no.,25,26,27,28,29,30,31
PABP polyA inh,-23,3,4,·,11,-4,3
eIF4H inh,-6,1,-10,·,13,2,1
Rce1 inhib,i,i,i,+,i,i,i
CSC inhib,6,1,26,60,-9,3,2
HIV Env fusion,14,·,·,-7,13,-25,0
MT1-MMP act inh,3,2,-2,-12,0,-7,4
MT1-MMP act inh RFP,7,2,-1,-20,4,1,-1
Yeast UUG start,-7,-6,-11,0,-15,3,·

Screening results: PubChem BioAssay, several laboratories
